Compound activity as filed in PubChem.
HNF4A DNA FP = change in binding of human HNF4 alpha to DNA. P41235. HNF4a-FITC DNA binding, fluorescence polarization, 1 h. activity change, % at 10 µM. actives 0.3% (n = 360,000); in the data active = activity change above about 30%, passing the limit was not always enough;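 note: controls were the assay level and a saturating level of protein; the project sought stronger binding though the title names inhibitors; some compounds called inactive have numbers as strong as hits; positive values seem to mean higher polarization but the record does not say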
Target sequence (P41235 whole entry, looked up): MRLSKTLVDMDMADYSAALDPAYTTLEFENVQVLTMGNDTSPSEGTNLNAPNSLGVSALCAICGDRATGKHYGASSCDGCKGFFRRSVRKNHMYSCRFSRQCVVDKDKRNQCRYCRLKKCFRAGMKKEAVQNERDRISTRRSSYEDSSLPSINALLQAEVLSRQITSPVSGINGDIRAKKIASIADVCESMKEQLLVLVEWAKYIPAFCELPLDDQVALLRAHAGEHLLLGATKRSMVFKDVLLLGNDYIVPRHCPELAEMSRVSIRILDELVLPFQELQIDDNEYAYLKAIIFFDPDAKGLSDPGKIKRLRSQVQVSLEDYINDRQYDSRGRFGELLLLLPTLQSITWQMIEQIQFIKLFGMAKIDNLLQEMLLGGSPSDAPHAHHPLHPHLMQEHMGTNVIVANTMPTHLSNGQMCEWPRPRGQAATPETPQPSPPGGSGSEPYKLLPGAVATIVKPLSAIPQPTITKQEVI
RanGTP-Imp inh = inhibitors of RanGTP-importin-beta interaction, primary screen, biochemical, FRET, CFP-Ran, YFP-importin-beta, homogeneous; cell-free CFP-Ran/YFP-importin-beta FRET ratio; inhibition, % (no concentration beside the values); actives 1.1% (n = 300,000); AID 2216;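 active = most replicates above 15%; inconclusive = exactly half above 15%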;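 note: 0% = DMSO wells and 100% = Ran loaded with GDP instead of GTP; wells of about 40 µL received 100 nL stock; the first replicate is given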
UCH37 DUB inh = human UCH37 deubiquitinating enzyme inhibition; Q9Y5K5; purified proteasome/UCH37, Ub-AMC cleavage fluorescence; inhibition, % (concentration not given with the values); actives 0.33% (n = 330,000); AID 588478;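 active = mean of two replicates above 20%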;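 note: 0% = compound-free wells with enzyme and 100% = wells lacking proteasome; stock transfer was 100 nL into about 20 µL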
Target sequence (Q9Y5K5 whole entry, looked up): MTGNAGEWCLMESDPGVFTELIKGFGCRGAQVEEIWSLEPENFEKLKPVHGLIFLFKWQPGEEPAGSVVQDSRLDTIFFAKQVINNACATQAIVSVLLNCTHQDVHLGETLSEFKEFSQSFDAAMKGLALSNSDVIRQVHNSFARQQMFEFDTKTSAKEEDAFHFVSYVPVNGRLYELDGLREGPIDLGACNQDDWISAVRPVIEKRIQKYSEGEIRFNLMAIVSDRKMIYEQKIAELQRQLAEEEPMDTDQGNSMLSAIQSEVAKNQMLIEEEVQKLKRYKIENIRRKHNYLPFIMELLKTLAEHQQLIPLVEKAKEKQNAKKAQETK
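Assay system: Proteasome-bound UCH37. Buffer or medium: pH 7.4 Tris-HCl (50 mM) with ovalbumin, ATP-MgCl2, DTT. Incubation: 30 min preincubation with enzyme, 25 min cleavage at room temperature. Measured by: fluorescence, ex 355 nm, em 460 nm. Read-out basis: percent inhibition. Control set: wells without proteasome as full block, compound-free enzyme plus substrate as uninhibited.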
Ecoli growth = E. coli growth inhibition; Escherichia coli growth, OD600, 23 h; hits give low values; OD600 absorbance (concentration not given with the values); actives 0.21% (n = 330,000); AID 1053175;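 active = OD600 absorbance below the run mean of sample wells minus 3.6 SD, in any replicate, cut at about 0.56 in these data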;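 note: stock transfer was 300 nL into about 60 µL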
FGF22 binding = shifts melting point of recombinant human FGF22; recombinant FGF22 thermal shift, SYPRO orange fluorescence; percent of sucrose octasulfate shift, DMSO zero; calls only at 9.99 µM; actives 1.5% (n = 340,000); AID 651658;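 active = melting point raised past a set limit in the mean and every replicate; inconclusive = no clear call; three in four hits are not shown here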
Target sequence (Q9HCT0 whole entry, looked up): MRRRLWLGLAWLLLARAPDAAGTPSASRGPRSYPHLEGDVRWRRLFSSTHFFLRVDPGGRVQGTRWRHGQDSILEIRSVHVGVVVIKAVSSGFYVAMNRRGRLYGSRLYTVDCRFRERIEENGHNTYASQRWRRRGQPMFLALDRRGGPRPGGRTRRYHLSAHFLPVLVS
Vif TR-FRET = HIV-1 Vif–A3G interaction blockers – biochemical, TR-FRET, GST-Vif 1-94, biotin-A3G peptide, dose response retest, primary screen (AID 1117319); one-dose inhibition, %; IC50 in µM for titrated hits; actives 0.57% (n = 260,000); TR-FRET GST-Vif / biotin-A3G peptide binding; higher % means a stronger effect; test concentration not given here; strong numbers were not always called active;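 active = above the screen mean plus three standard deviations and confirmed in dose response; inconclusive = results disagree or hit not tested in dose response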;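 note: Vif residues 1-94 fused to GST binding biotinylated APOBEC3G peptide 110-148; 0% = full assay without inhibitor and 100% = GST in place of GST-Vif; retest series ran down from 100 µM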
AF4-AF9 inh = MLL-AF4/AF9 protein interaction inhibition; P42568; AlphaScreen, biotin-AF4 peptide binding to FLAG-AF9; inhibition, % at 10 µM; actives 0.47% (n = 350,000);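 active = every replicate reaching a set inhibition limit, whatever the replicate mean, cut at about 25% in these data; inconclusive = mean inhibition reaches that limit but some replicates miss it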;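 note: 0% = plate neutral control median and 100% = total signal loss; the record names both 10 and 1 µM as test concentration; the first replicate is given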
* hit, by the source's call; i = inactive; ? = inconclusive; · = not tested or not shown; & = joins results of further samples. Not all compounds are listed. The share of hits here may be higher or lower than overall.

SMILES	HNF4A DNA FP	RanGTP-Imp inh	UCH37 DUB inh	Ecoli growth	FGF22 binding	Vif TR-FRET	AF4-AF9 inh
O=[N+]([O-])c1ccc2nc(CN3CCCCC3)[nH]c2c1	3.2	-1.9	5.5	0.69	i	-3%	-0.9
COc1ccc(CC(=O)N[C@@H](CCSC)C(=O)N2CCC3(CC2)NCCc2[nH]cnc23)cc1	2.0	0.0	6.9	0.71	i	·	3.3
Cc1cc(C)n2nc(C(=O)OCC(=O)Nc3cc(Cl)ccc3C)nc2n1	-0.4	·	4.0	0.69	i	10%	-1.9
C[C@H](CO)N1C[C@H](C)[C@H](CN(C)S(C)(=O)=O)OCc2cnnn2CCCC1=O	-1.4	·	·	·	i	·	-2.8&0.5
CCOC(=O)C1CCN(S(=O)(=O)c2cccc(-c3cn4cccnc4n3)c2)CC1	1.7	1.1	-251	0.78	·	72%	·
Cc1ccc(CC2CC(=O)N(CCc3ccc4c(c3)OCO4)C2=O)cc1 (stereo unspecified)	-2.5	-0.8	-2.5	0.7	·	-3%	·
CCOc1ccccc1OCCCC(=O)Nc1sccc1C(N)=O	6.1	2.7	6.1	0.7	i	-20%	-16
CCC[C@H]1CN(c2ccccc2)C(=O)[C@@H]1CC(=O)Nc1ccc(OC)cc1	0.9	·	·	·	i	-3%	-0.9
Cn1c(-c2ccc(F)cc2)cnc1NCc1ccccc1F	-0.1	2.7	4.6	0.68	i	0%	7.5
CN(/N=C/c1ccc(Cl)cc1)c1ncc(Cl)cc1C(F)(F)F	6.2	1.8	·	·	i	-11%	·
OCc1ccccc1CN1CCCCCC1	-1.8	4.7	0.1	0.7	i	·	-0.1
CCC(CO)Oc1cc(NCc2ccccc2O)c2ncn(C(C)C)c2c1 (stereo unspecified)	2.5	·	0.4	0.7	i	·	0.5
CCNc1ccc(C(=O)OCC(=O)NC(=O)NCC(C)C)cc1[N+](=O)[O-]	3.0	4.5	5.7	0.73	i	-1%	-0.9
CN(C)C(=O)CCc1ccc2c3c([nH]c2c1)[C@]1(C)[C@@H](C(=O)N2CCCCC2)C[C@H](CC(=O)NCCC2=CCCCC2)C(=O)N1CC3	1.1	·	1.3	0.73	i	2%	-0.1
Cc1cc(NC(=O)C(C)SCC(=O)Nc2ccccc2N2CCCC2)no1 (stereo unspecified)	3.6	6.7	·	·	i	·	2.0
COc1cccc(NC(=O)CN(C)C(=O)c2cccc(NS(=O)(=O)c3ccc(Br)cc3)c2)c1	1.8	·	2.7	0.69	i	·	0.5
CC1Cc2ccccc2N1C(=S)NC1CCCC1 (stereo unspecified)	-1.9	0.4	1.0	0.63	i	·	-5.5
O=C(CN1C(=O)NC2(CCCC2)C1=O)N1CCCSC1=Nc1ccccc1	-4.1	·	3.1	0.69	i	-5%	-1.2
O=Cc1cn(CC(=O)Nc2ccccc2)c2ccccc12	1.7	-0.5	2.4	0.68	i	·	-2.3
COc1ccc(NC(=O)C2(c3ccc(NC(=O)c4ccc(OC)cc4)cc3)CCCC2)cc1	0.2	-1.0	-13	0.66	·	·	·
CCN(CC)CCN(CC(=O)Nc1c(C)cc(C)cc1C)C(=O)c1ccccc1	-2.7	-0.5	2.9	0.69	i	0%	-0.7
COC(=O)[C@@H]1CCCN1Cc1nc(Cc2ccccc2F)no1	1.0	5.4	-0.8	0.76	i	·	-0.4
COC(=O)c1c(C(=O)OC)c(-c2ccc(F)cc2)n2c1CSC2	3.1	-3.4	3.8	0.65	i	-10%	1.3
CCCCNS(=O)(=O)c1ccc2nc(SCC(=O)Nc3cccc(F)c3)[nH]c2c1	4.7	7.4	3.9	0.65	·	30%	·
CN(C(=O)c1cccc(NC(=O)Cc2ccc(NC(=O)C3CCCN(C(=O)C4CCCC4)C3)cc2)c1)C1CC1 (stereo unspecified)	-2.8	·	3.9	0.7	i	-5%	-0.2
COc1cc(NC(=S)Nc2cccnc2)cc(OC)c1	-3.1	-0.7	2.3	0.68	i	17%	2.6
CCOC(=O)c1ccc(NC(=O)c2c(NCc3ccccc3)[nH]c(=O)[nH]c2=O)cc1	·	-5.9	-1.7	0.67	i	·	-1.9
CC(C)c1ccc(C(=O)N2CCOCC2c2cc(C(=O)Nc3ccccc3)no2)cc1 (stereo unspecified)	-3.4	·	·	·	i	·	2.3
CCOc1ccc(OCCC(=O)NNC(=O)c2cc(OC)c(OC)c(OC)c2)cc1	-5.0	-0.6	-1.3	0.7	i	1%	-0.8
Cn1c(=O)c(N=O)c(N)n(Cc2ccccc2)c1=S	2.8	5.2	6.4	0.66	i	·	3.4
COc1ccc(/C=C/C(=O)NC(=S)NCCc2ccc(OC)c(OC)c2)cc1	-0.8	0.3	-2.6	0.7	i	-8%	-6.6
COC(=O)c1ccc(-n2c(C)ccc2-c2ccccc2)cc1	0.9	7.3	-0.1	0.68	i	22%	13
Cc1nn(C)c(C)c1CN(C)C(=O)C1c2ccccc2Oc2ccccc21	-6.3	-4.5	2.4	0.69	·	-12%	·
Cc1cccc(N2CCN(Cc3nc(-c4ccc(F)cc4F)oc3C)CC2)n1	3.1	-0.9	-2.4	0.69	i	-5%	7.0
O=S(=O)(NCC1CC1)c1ccc(F)c(Cl)c1	5.8	0.7	4.7	0.67	i	2%	-1.1
CC1(C)CC(=O)c2cc(C(=O)Nn3cnnc3)c(=O)n(-c3ccccc3)c2C1	0.1	-1.0	-2.8	0.75	·	2%	·

Full records from above. Order of values: HNF4A DNA FP, RanGTP-Imp inh, UCH37 DUB inh, Ecoli growth, FGF22 binding, Vif TR-FRET, AF4-AF9 inh
Results for Cc1cccc(N2CCN(Cc3nc(-c4ccc(F)cc4F)oc3C)CC2)n1 = 3.1, -0.9, -2.4, 0.69, i, -5%, 7.0
Results for CC(C)c1ccc(C(=O)N2CCOCC2c2cc(C(=O)Nc3ccccc3)no2)cc1 (stereo unspecified) = -3.4, ·, ·, ·, i, ·, 2.3
Results for CC1(C)CC(=O)c2cc(C(=O)Nn3cnnc3)c(=O)n(-c3ccccc3)c2C1 = 0.1, -1.0, -2.8, 0.75, ·, 2%, ·
Results for COc1cc(NC(=S)Nc2cccnc2)cc(OC)c1 = -3.1, -0.7, 2.3, 0.68, i, 17%, 2.6

Remaining list, next part:
SMILES	HNF4A DNA FP	RanGTP-Imp inh	UCH37 DUB inh	Ecoli growth	FGF22 binding	Vif TR-FRET	AF4-AF9 inh
CCOc1cc(/C=N/Nc2cc(C)nc(-n3nc(C)cc3C)n2)ccc1O	-2.7	9.6	·	·	i	-5%	-3.2
CN(C)CC(O)COc1ccc(-c2ccc(C#N)cc2)cc1 (stereo unspecified)	·	-0.2	-5.5	0.8	·	-1%	·
Cc1cccc(C)c1NC(=O)c1cc2c(=O)c3ccccc3oc2nc1C(F)(F)F	-3.2	-2.8	6.0	0.74	·	-9%	·
CN(C)Cc1nc2c(c(=O)[nH]1)C1(CCCCC1)Cc1ccccc1-2	-4.4	?	1.3	0.66	i	-8%	3.7
Cc1cccc(-c2nc(CSCC(=O)N3CCN(c4ccccn4)CC3)c(C)o2)c1	0.9	?	0.6	0.65	·	?	·
O=C(Nc1nnc(-c2ccc(Cl)cc2)o1)c1ccc(N2C(=O)CCC2=O)cc1	-5.9	0.1	4.3	0.69	i	·	-0.5
N#Cc1c(NC(=O)CN2CCCCC2)sc2c1CCC2	0.1	8.1	2.5	0.75	·	22%	·
COc1ccccc1-n1c(Cc2cccs2)n[nH]c1=S	0.6	?	4.1	0.68	i	15%	-2.3
CCc1cc(=O)oc2cc(C)cc(OCC(=O)NCCc3c[nH]c4ccccc34)c12	3.7	-0.9	1.8	0.75	i	·	-1.0
CSc1nc(C)nc(C2CC2)c1C#N	-1.4	5.6	5.2	0.64	i	-9%	-3.5
C=CCn1c(CNC(=O)c2ccco2)nnc1SCC(=O)c1ccc(OC)cc1	2.4	3.6	4.5	0.71	i	23%	-1.4
Cc1ccc(C)c(N2CCN(C(=O)Cn3c(=O)oc4cc(S(=O)(=O)N5CCCC5)ccc43)CC2)c1	-2.7	?	6.6	0.73	i	·	-0.4
CN(C)C(=O)CCCc1nc(-c2ccc(Cl)cc2)no1	3.4	0.6	3.8	0.67	·	3%	·
Cc1cccc(C)c1NC(=O)COC(=O)c1ccc(N2CCCC2)c([N+](=O)[O-])c1	1.7	2.1	6.0	0.69	·	-6%	·
CCOC(=O)c1c(NC(=O)C2CCCN(S(=O)(=O)c3ccccc3)C2)sc2c1CCCC2 (stereo unspecified)	3.8	0.2	-5.8	0.72	·	·	·
Cc1ccc(CO/N=C/C2=C(Cl)c3ccccc3CC2)cc1	2.4	1.0	·	·	·	5%	·
COc1ccc2c3c(ccc2c1)C(=O)/C(=C/O)CC3	1.7	·	-45	0.72	i	28%	-6.9
COc1ccc(C(N)c2csc(NC(=O)Nc3ccccc3C(C)(C)C)n2)cc1 (stereo unspecified)	0.7	·	·	·	i	·	5.7
CCCOc1ccc(/C=C/C(=O)O)cc1OC	6.7	3.3	-2.2	0.71	i	·	-3.7
COc1ccc(OCC(=O)NS(=O)(=O)c2ccccc2)cc1	-1.2	0.4	0.2	0.65	i	·	-1.2
CCOc1ccc(C(=O)CN2CCN(S(=O)(=O)c3ccc(Cl)cc3)CC2)cc1	0.0	-0.2	5.9	0.75	·	4%	·
COC(=O)c1sc(NC(=O)C2c3ccccc3Oc3ccccc32)c(C(=O)OC)c1C	-3.1	-0.8	-1.8	0.73	·	-1%	·
CCOC(=O)[C@]12CCC=C1N(Cc1ccccc1)C(=O)[C@H](CC(=O)NCCc1ccccc1OC)C2	6.0	·	·	·	i	·	0.6
O=C(c1ccccc1C(=O)N1CCN(c2ccccc2F)CC1)N1CCN(c2ccccc2F)CC1	-2.7	-1.9	1.1	0.69	·	23%&-1%	·
CCOC(=O)c1ccc(NC(=O)c2ccccc2N(C)S(=O)(=O)c2ccccc2)cc1	-2.7	-2.5	0.5	0.7	i	·	12
O=C1OCCN1N=Cc1ccco1	1.6	·	0.3	0.66	i	-10%	-0.4
Nc1nonc1-n1nnc(C(=O)N/N=C/c2cccc(Cl)c2)c1CN1CCCC1	-0.6	-6.3	·	·	i	-16%	0.0
COc1ccc(C2=NS(=O)(=O)N(C)C(C(=O)Nc3ccc(C(C)=O)cc3)=C2)cc1OC	-2.5	-4.1	1.9	0.72	i	·	5.7
Cc1nc2c(-c3ccc(F)cc3)c(C)nn2c(C)c1CCC(=O)Nc1ccccc1F	-3.9	0.1	-18	0.71	i	10%	2.0
COCCN(C(=O)CSc1nnc(-c2cccc(OC)c2)n1C)c1c(N)n(Cc2ccccc2)c(=O)[nH]c1=O	0.8	-2.5	-1.0	0.73	·	-2%	·
CC(C)Cn1cnc2c(SCc3ccccc3)nc(N)nc21	1.2	·	1.2	0.69	i	-3%	-0.5
C=CCOc1ccc(/C=N/NC(C)=O)cc1OCC	2.5	1.1	·	·	i	·	-0.1
CCOC(=O)N1CCN(C(=O)/C=C/c2ccc3c(c2)OCO3)CC1	-0.8	-1.1	-25	0.7	i	-5%	-10
Fc1cccc(Cc2c(-c3cccc(Br)c3)nc3ccc(Br)cn23)c1	17	·	·	·	i	·	-2.2
Cc1nonc1NC(=O)CSc1nc(CCC2CCCC2)nc2ccccc12	1.5	-2.4	1.7	0.66	i	7%	-3.9
C[C@H]1CN=C(N(C)C)N1CCCC1CCCC1	-0.1	·	-2.0	0.71	i	·	-1.3
COc1ccc(-c2nnc(NC(=O)c3ccc4c(c3)OCCO4)o2)cc1	-2.2	2.2	-6.5	0.7	i	-4%	-1.5
CC(C)(CO)NC(=O)c1ccc2nc(Cc3cccc(Cl)c3)oc2c1	1.6	-3.6	2.0	0.71	i	·	-1.6
Cn1cccc1CC(=O)N/N=C/c1cc([N+](=O)[O-])ccc1Cl	6.8	?	·	·	i	6%	6.5
